UCH37 DUB inh = blocks the human deubiquitinase UCH37. Q9Y5K5. purified proteasome/UCH37, Ub-AMC cleavage fluorescence. inhibition, % (test concentration not listed). AID 588478. 330,000 tested, 0.33% active;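 active means mean of two replicates above 20%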;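 further: 0% = compound-free wells with enzyme and 100% = wells lacking proteasome; stock transfer was 100 nL into about 20 µL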
Target sequence (Q9Y5K5 whole entry, looked up): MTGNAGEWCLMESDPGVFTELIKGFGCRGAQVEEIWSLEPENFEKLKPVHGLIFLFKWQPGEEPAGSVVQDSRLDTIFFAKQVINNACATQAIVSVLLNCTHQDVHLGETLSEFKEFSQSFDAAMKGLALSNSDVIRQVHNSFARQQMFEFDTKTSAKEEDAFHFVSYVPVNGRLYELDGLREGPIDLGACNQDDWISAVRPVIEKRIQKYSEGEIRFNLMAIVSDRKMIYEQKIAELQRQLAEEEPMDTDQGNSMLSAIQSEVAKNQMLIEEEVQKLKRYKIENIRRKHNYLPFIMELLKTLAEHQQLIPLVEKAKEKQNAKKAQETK
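Material: human UCH37 enzyme supplied as purified proteasome complex. Measure: % inhibition of Ub-AMC cleavage fluorescence. Medium: pH 7.4 Tris-HCl (50 mM) with ovalbumin, ATP-MgCl2, DTT. Times: 30 min preincubation with enzyme, 25 min cleavage at room temperature. Detection: AMC fluorescence intensity at 355/460 nm.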
FGF22 binding = shifts melting point of recombinant human FGF22; calls only at 9.99 µM; recombinant FGF22 thermal shift, SYPRO orange fluorescence; percent of sucrose octasulfate shift, DMSO zero; Q9HCT0; AID 651658; 340,000 tested, 1.5% active;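 active means melting point raised past a set limit in the mean and every replicate; three in four hits are not shown here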
Target sequence (Q9HCT0 whole entry, looked up): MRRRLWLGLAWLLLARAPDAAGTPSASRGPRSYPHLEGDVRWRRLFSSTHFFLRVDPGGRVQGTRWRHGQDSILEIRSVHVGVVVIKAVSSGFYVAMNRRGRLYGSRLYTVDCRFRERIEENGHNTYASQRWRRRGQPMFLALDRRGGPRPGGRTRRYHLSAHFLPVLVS
LANA-H2B inh = blocks KSHV LANA binding to histone H2A/H2B; Q9QR71; cell-free LANA-H2A/H2B peptide, fluorescence polarization; inhibition, % (concentration not given with the values); 320,000 tested, 0.6% active; AID 2629; in the data active means inhibition mostly above about 10%, no sharp cut-off; inactive means mostly below about 6.7%;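 further: stock transfer was 7.5 nL into about 10 µL; 0% = median of vehicle wells and 100% = median of positive control wells; one replicate is shown; the record names a cut of 25% in any replicate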
HNF4A DNA FP = change in binding of human HNF4 alpha to DNA. P41235. HNF4a-FITC DNA binding, fluorescence polarization, 1 h. activity change, % at 10 µM. 360,000 tested, 0.3% active. AID 1224865; in the data active means activity change above about 30%, passing the limit was not always enough;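 further: controls were the assay level and a saturating level of protein; the project sought stronger binding though the title names inhibitors; some compounds called inactive have numbers as strong as hits; positive values seem to mean higher polarization but the record does not say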
Target sequence (P41235 whole entry, looked up): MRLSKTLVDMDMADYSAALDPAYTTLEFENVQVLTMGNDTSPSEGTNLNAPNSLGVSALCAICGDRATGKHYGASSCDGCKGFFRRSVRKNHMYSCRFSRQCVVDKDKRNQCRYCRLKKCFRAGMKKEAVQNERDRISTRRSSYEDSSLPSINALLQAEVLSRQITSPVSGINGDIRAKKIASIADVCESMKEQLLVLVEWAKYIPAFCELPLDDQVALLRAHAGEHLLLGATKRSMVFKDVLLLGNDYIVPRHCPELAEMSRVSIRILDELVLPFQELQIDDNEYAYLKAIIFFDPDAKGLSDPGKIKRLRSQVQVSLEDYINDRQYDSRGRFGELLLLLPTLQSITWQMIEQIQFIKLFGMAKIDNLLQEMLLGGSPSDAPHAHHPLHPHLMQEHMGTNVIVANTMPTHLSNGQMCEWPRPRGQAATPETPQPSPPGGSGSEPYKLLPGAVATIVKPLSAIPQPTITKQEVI
B2AR ag = human beta-2 adrenergic receptor agonism by FAP; Am2.2-beta2AR cells, FAP receptor internalization, flow cytometry; reference of the scale not given here; P07550; 340,000 tested, 0.43% active; response, % (concentration not given with the values);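 active means response above a set limit, near 3 SD of response in nonfluorescent compounds, cut at about 42% in these data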;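 further: stock transfer was 100 nL into about 11 µL; a reference agonist was the positive control; negative values mostly stem from fluorescent compounds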
ALR inh = blocks human ALR sulfhydryl oxidase activity; P55789; purified ALR, DTT oxidation, H2O2 HRP-luminol luminescence; 290,000 tested, 3.8% active; AID 485317; inhibition, % (test concentration not listed);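 active means mean and each replicate at 75% or more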;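 further: stock transfer was 7.5 nL into about 7.5 µL; 0% = neutral wells and 100% = wells with inactivated enzyme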
E coli growth = blocks Escherichia coli growth; OD600, 23 h; stronger effect = lower value; OD600 absorbance (test concentration not listed); 330,000 tested, 0.21% active; AID 1053175;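 active means OD600 absorbance below the run mean of sample wells minus 3.6 SD, in any replicate, cut at about 0.56 in these data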;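 further: stock transfer was 300 nL into about 60 µL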
* hit, by the source's call; i = inactive; x = not tested or not shown. The list is partial. The share of hits here may be higher or lower than overall.

SMILES	UCH37 DUB inh	FGF22 binding	LANA-H2B inh	HNF4A DNA FP	B2AR ag	ALR inh	E coli growth
COc1ccc(N(C(=O)c2snc(C(N)=O)c2N)C(C(=O)NC2CCCC2)c2ccco2)cc1OC (stereo unspecified)	-2.1	i	x	-0.2	-2	x	0.65
Cc1ccc(N2C(=O)C3C4C=CC(CNC(=S)Nc5cccc(Cl)c5)(O4)C3C2=O)cc1 (stereo unspecified)	2.4	i	1.3	-0.1	-5	-1	0.69
O=C(O)c1ccc(-c2noc(-c3ccccc3F)n2)cc1	-1.0	i	-3.7	3.1	1	38	0.73
Cc1cc(/C=N/n2c(COc3ccccc3C)nc3ccccc3c2=O)c(O)c([N+](=O)[O-])c1	x	i	3.9	1.5	-410	5	x
ClC(Br)=C(n1cnc2ccccc21)n1cnc2ccccc21	4.0	x	-0.4	-1.5	27	-5	0.7
COc1ccc(C2CC(C(F)(F)F)n3ncc(C(=O)NCC4CCCO4)c3N2)cc1OC (stereo unspecified)	-0.1	x	-1.9	0.2	4	48	0.65
CCOC(=O)N1CCN(C(=O)CC(=O)Nc2ccc3nc4n(c(=O)c3c2)CCCCC4)CC1	3.4	x	4.6	8.4	4	-6	0.7
COc1ccccc1NC(=O)/C=C\C(=O)O	4.2	i	1.3	2.6	2	-10	0.67
Cc1cc(C)c(S(=O)(=O)NC2CC2)c(C)c1	2.3	i	3.8	-2.3	0	-16	0.63
CCOC(=O)N1CCC(N2C(=O)c3ccccc3C2Nc2ccccc2C)CC1 (stereo unspecified)	0.2	i	6.8	0.0	-11	-5	0.69
Cc1cc(C(=O)COC(=O)c2ccc(O)cc2)c(C)n1CCc1ccc(F)cc1	5.4	i	6.5	4.3	-7	x	0.7
c1csc(-c2nnc(NC3CCCCC3)c3ccccc23)c1	-3.5	i	-2.8	2.7	2	1	0.57
Cc1[nH]n(-c2ccccc2)c(=O)c1/C=N/NC(=O)c1ccccc1F	x	i	3.2	3.2	13	x	x
CC(=O)Nc1ccc(NC(=O)CSc2nnc(C)c(=O)n2N)cc1	4.1	i	-1.4	1.6	1	98*	0.67
CC(=O)Nc1ccc(C(=O)NNC(=O)c2ccccc2-n2cccc2)cc1	-1.3	i	-1.4	0.5	-3	3	0.69
CC1Sc2ccc(S(=O)(=O)CCC(=O)N3CCN(c4ccccc4)CC3)cc2NC1=O (stereo unspecified)	0.5	i	-14	1.5	-8	21	0.66
CCOC(=O)c1cc(NC(=O)c2cccnc2)ccn1	-26	i	2.7	0.4	-3	-13	0.7
O=S(=O)(Cc1ccccc1)N1CCc2ccccc2C1	3.6	x	4.1	0.5	6	-6	0.67
COc1cc(N2CCCC2)c(OC)cc1C=O	x	i	3.9	-2.3	10	15	x
Cc1onc(-c2ccccc2Cl)c1C(=O)N1CCN(c2ncccn2)CC1	-3.8	i	0.5	0.1	1	-8	0.7
COc1cccc(NC(=O)N2CCCC2C(=O)Nc2ccc3c(c2)OCCO3)c1 (stereo unspecified)	3.7	i	-4.7	-1.3	-7	-5	0.7
COc1ccc(C(=O)OCC(=O)Nc2c(C)cccc2C)c(OC)c1OC	3.2	i	-1.7	3.5	6	-5	0.68
CCC(C)n1c(SCC(=O)Nc2cc(C)on2)nc2ccccc2c1=O (stereo unspecified)	-0.1	x	-0.5	3.5	-2	4	0.73
Cc1ccc(F)cc1NC(=O)CCc1c(C)nn(-c2ccc(N3CCCCC3)nn2)c1C	-3.0	i	6.7	-5.1	-18	-17	0.68
O=C(NCC1CCCO1)c1ccc(NC(=O)c2cc(F)c(F)cc2Cl)cc1 (stereo unspecified)	0.4	i	-2.7	0.8	10	-8	0.62
Cc1ccccc1C1NC(=S)NC2=C1C(=O)CCC2 (stereo unspecified)	-1.4	x	-4.4	-7.7	1	-11	0.71
COc1cc2c(cc1OC)CN(CC(=O)Nc1ccc(C#N)cc1)CC2	-8.1	x	1.4	3.4	14	-25	0.67
Cc1ccc(-c2noc(CN(C(=O)CCCCCN3C(=O)c4ccccc4C3=O)C(C)C)n2)cc1	3.6	x	0.0	-4.3	-26	-6	0.72
Cc1c(C(=O)N/N=C/c2ccoc2)cccc1[N+](=O)[O-]	x	i	-4.6	-4.8	7	-1	x
COC(=O)c1ccsc1NC(=O)C1COc2ccccc2O1 (stereo unspecified)	4.7	i	-0.7	-0.7	10	-1	0.68
O=C1[C@@H]2C(Cc3ccc(O)cc3)NC3(C(=O)Nc4ccc(F)cc43)[C@@H]2C(=O)N1c1ccccc1 (stereo partly specified)	5.0	x	1.5	1.1	-3	x	0.69
CC(C)(C)c1ccc(C(=O)NCC(=O)OCC(=O)N2CCCC2)cc1	-1.6	i	7.7	-5.5	1	0	0.69
Cc1ccc(S(=O)(=O)N2CCN(C(=O)c3ccc4nc[nH]c4c3)CC2)cc1	3.2	i	-2.5	2.3	3	-14	0.63
Cc1ccc(Cn2cc(SCC(=O)Nc3nccs3)c3ccccc32)cc1	6.1	i	-1.4	2.9	-3	x	0.77
COc1ccc(CN(CC2CCCO2)C(=O)c2cc3sccc3n2C)c(OC)c1 (stereo unspecified)	4.1	i	-3.2	-5.1	-3	x	0.7
Cc1cc(C)nc(N/N=C/c2ccccc2OCc2cccc(Br)c2)n1	x	i	-2.3	20	-37	-8	x
COc1cc(OC)cc(-c2oc(=O)c3cc(OC)c(OC)cc3c2C#CCCCO)c1	-48	i	2.3	-0.7	-2	-4	0.71
COc1ccccc1CNC(=O)C1CCC(CNS(=O)(=O)c2ccc(F)cc2)CC1 (stereo unspecified)	1.4	i	-1.2	1.3	-15	0	0.68
O=C(c1cc(S(=O)(=O)N2CCOCC2)ccc1F)N1CCN(Cc2ccccc2)CC1	3.9	x	6.4	2.3	-4	-13	0.7
COC1=C(Nc2ccccc2)C(=O)c2ccccc2C1=O	8.3	x	2.6	0.1	-15	-8	0.65
COC(=O)Cn1c2ccc(OC)cc2c2nc3ccccc3nc21	5.4	x	-0.7	-3.4	-9	-2	0.73
Oc1cc2c(c(Cl)c1O)CCNCC2c1ccccc1 (stereo unspecified)	4.6	i	2.8	-3.2	1	99*	0.63
CCOc1ccc(C(=O)OCC(=O)N(Cc2ccccc2)Cc2ccccc2)cc1OC	2.6	i	-2.0	3.2	-4	2	0.66
Cc1cc(OCc2n[nH]c(=S)n2-c2ccccc2)ccc1Cl	3.1	i	-3.9	-2.4	1	x	0.64
O=C(Nc1ccc(Br)cc1)Nn1cnnc1	1.4	i	7.8	-3.0	2	-1	0.68
O=C(OCC(O)CN1CCCCC1)C12CC3CC(CC(C3)C1)C2 (stereo unspecified)	4.6	x	-1.9	1.5	3	-11	0.72
COc1cc(OC)cc(C(=O)NC(=S)NCc2ccco2)c1	0.5	i	3.8	2.4	-1	0	0.71
CSc1cccc(NC(=S)N(Cc2ccccc2)Cc2ccccn2)c1	2.0	i	-3.5	-2.3	19	2	0.75
CCn1c(-c2csc3c2CCC(C)C3)n[nH]c1=S (stereo unspecified)	2.5	i	3.7	1.2	-20	15	0.68
CCOc1ccc(NC(=O)NCc2cccn2C)cc1	2.0	i	0.3	2.9	-1	x	0.7
The list continues.
SMILES	UCH37 DUB inh	FGF22 binding	LANA-H2B inh	HNF4A DNA FP	B2AR ag	ALR inh	E coli growth
C#CCN1C(=O)S/C(=C\c2ccc(N3CCOCC3)cc2C)C1=O	2.5	x	5.7	-8.8	24	0	0.68
O=C(CSc1nnc(NC(=O)C2CC(=O)N(c3ccc(F)cc3)C2)s1)NC1CCCC1 (stereo unspecified)	-3.6	i	-1.3	3.0	-5	1	0.7
CCN(C[C@H]1N[C@@](CC)(C(=O)OC)[C@H]2C(=O)N(Cc3ccccc3)C(=O)[C@@H]12)S(=O)(=O)c1ccccc1	3.7	i	-3.9	-0.8	-4	x	0.68
O=C(CN(C(=O)c1csnn1)c1ccc(Cl)cc1)NC1CCCC1	-1.0	i	-1.4	1.1	0	-12	0.66
CC1CN(C(=O)CSc2nc(N)cc(N)n2)CC(C)O1 (stereo unspecified)	1.3	i	2.1	1.6	-5	x	0.64
CCOC(=O)CCc1c(C(=O)OCC)[nH]c(CC)c1C(=O)OCc1ccccc1	2.0	i	4.4	2.6	6	11	0.67
O=C1CN(C(=O)c2ccccc2Br)C(c2ccc(F)cc2)c2cc(F)ccc2N1 (stereo unspecified)	2.4	i	0.6	1.7	3	-5	0.66
CCc1ccc(S(=O)(=O)NCC(O)COc2ccc(OC)cc2)cc1 (stereo unspecified)	3.4	i	1.7	-0.2	0	-12	0.65
CSc1ccc(CNC(=O)C2CCC(=O)N(CCc3cccc(F)c3)C2)cc1 (stereo unspecified)	1.7	i	-9.4	3.0	-9	2	0.69
CCOC(=O)COc1ccc(S(=O)(=O)Nc2ccc3c(c2)OCCO3)cc1	0.9	x	3.1	0.6	9	-6	0.68

Entries of single compounds from above. Values in the order: UCH37 DUB inh	FGF22 binding	LANA-H2B inh	HNF4A DNA FP	B2AR ag	ALR inh	E coli growth
`CCOC(=O)COc1ccc(S(=O)(=O)Nc2ccc3c(c2)OCCO3)cc1` is listed with 0.9	x	3.1	0.6	9	-6	0.68
`CCc1ccc(S(=O)(=O)NCC(O)COc2ccc(OC)cc2)cc1` (stereo unspecified) is listed with 3.4	i	1.7	-0.2	0	-12	0.65

(listing goes on)
SMILES	UCH37 DUB inh	FGF22 binding	LANA-H2B inh	HNF4A DNA FP	B2AR ag	ALR inh	E coli growth
Cc1ccc(S(=O)(=O)/C=C2\NC(=O)CS2)cc1	0.8	x	-0.9	-0.7	2	12	x
O=C(NCc1cccc(F)c1)C1CCC(=O)N(CC2CCCCC2)C1 (stereo unspecified)	-1.4	i	2.0	-0.9	-5	-1	0.67
CC(C)CCOP(=O)(c1ccc(N(C)C)cc1)C(O)c1ccc(Cl)cc1Cl (stereo unspecified)	3.7	i	1.2	3.4	-6	-4	0.69
COc1ccc(OC)c(C(C)NC=O)c1 (stereo unspecified)	1.8	i	3.7	0.5	4	1	0.67
CCOc1cc(-c2noc(CCCC(N)=O)n2)cc(Br)c1OC	0.3	x	-1.4	-1.8	-1	-3	0.75
CCCn1c(O)c(N=NC(=O)c2cccnc2)c2cc(Br)ccc21	5.5	i	-0.8	0.6	4	-6	0.73
CC(=O)Nc1ccc(OCC(O)Cn2c3ccccc3c3ccccc32)cc1 (stereo unspecified)	2.9	x	-1.5	-0.2	7	0	0.66
COc1ccc(CC(=O)Nc2ccc(/C(C)=N/NC(=O)c3cccc([N+](=O)[O-])c3)cc2)cc1	x	x	-0.9	-0.7	-5	-4	x
C#CCn1c(O)c(N=NC(=O)CNC(=O)/C=C/c2ccccc2)c2ccccc21	9.1	i	0.2	0.9	14	-7	0.72
CN(C)C(CNC(=O)c1cccc(C#N)c1)c1ccco1 (stereo unspecified)	-0.1	i	x	3.0	1	0	0.71
CC1(NC(=O)N2CCCCC2)CCS(=O)(=O)C1 (stereo unspecified)	-0.4	x	19*	-1.8	2	-1	0.66
CCOC(=O)[C@@H]1[C@H]2COc3ccccc3[C@@H]2N2C(=O)N(c3cccc(F)c3)C(=O)[C@]12C	-0.2	i	0.3	0.9	-2	6	x
O=C(CN(Cc1ccc(Br)cc1)S(=O)(=O)c1ccccc1)NCc1ccncc1	1.1	i	2.7	1.5	5	-11	0.69
CCOC(=O)N1CCN(S(=O)(=O)c2ccc(OC)c(C(=O)N3CCCCC3)c2)CC1	3.3	i	-4.8	0.5	4	x	0.68
COc1cccc(-c2csc3nnc(SCC(=O)c4ccc(NC(C)=O)cc4)n23)c1	2.5	i	1.2	-0.3	-19	1	0.68

Reprinted from above (three entries):
SMILES	UCH37 DUB inh	FGF22 binding	LANA-H2B inh	HNF4A DNA FP	B2AR ag	ALR inh	E coli growth
O=C(CN(Cc1ccc(Br)cc1)S(=O)(=O)c1ccccc1)NCc1ccncc1	1.1	i	2.7	1.5	5	-11	0.69
CCOC(=O)N1CCN(S(=O)(=O)c2ccc(OC)c(C(=O)N3CCCCC3)c2)CC1	3.3	i	-4.8	0.5	4	x	0.68
COc1cccc(-c2csc3nnc(SCC(=O)c4ccc(NC(C)=O)cc4)n23)c1	2.5	i	1.2	-0.3	-19	1	0.68

Assay outcomes deposited in PubChem BioAssay by several laboratories.
